S aureus helic: inhibitors of S. aureus replicative helicase, primary screen, biochemical, fluorescence unwinding readout; purified S. aureus helicase, fluorescence unwinding assay; about half of the hits fall short of the stated cut; inhibition, %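 (tested at about 80 µM)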; 120,000 tested, 0.05% active; AID 485395, 2010;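 active means both duplicates at 50% or more, or one of them with a favoured structure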;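 further: 0% = mean of negative control wells and 100% = mean of positive control wells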
MgrA-DNA mod: S. aureus MgrA activity modulators, primary screen, biochemical, S. aureus Newman, fluorescence polarization; MgrA-DNA binding; inhibition, %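 (about 10 µg/mL by stock and volumes)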; 84,000 tested, 0.13% active;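 active means above 50% in either of two replicates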;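 further: 0% = protein plus DNA without compound and 100% = DNA alone without protein; higher means less MgrA bound to DNA so lower polarization; one replicate is shown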
* marks the source's active call; other numbers are inactive results; . = not tested or not shown; & = joins results of further samples. This is a subset; count on the stated rates, not on these rows.

SMILES | S aureus helic | MgrA-DNA mod
O=C(Cc1c(F)cccc1Cl)N1CCC2(CC1)OCCO2 | 11 | 0.3
CSc1nc(N)nc(SC2C=CCCC2)c1C#N (stereo unspecified) | 10 | -1.1
CCC1(CC)Cc2ccccc2C(c2cc3ccccc3oc2=O)=N1 | 7 | 2.5
COC(=O)c1ccc(-n2ccnc2)cc1 | . | 0.7
OCc1cccc2cccc(Br)c12 | . | -2.0
COc1ccc(-n2c(SCCNCCO)nc3ccccc32)cc1 | -16 | .
CC(=O)Nc1ccc(S(=O)(=O)Nc2nccc(C3Cc4ccccc4C(=O)O3)n2)cc1 (stereo unspecified) | -4 | 2.2
COc1cc(N)c(Cl)cc1C(=O)OCC(=O)N(C)c1ccccc1 | -9 | .
Cc1ccc(Nc2cc(-c3ccccc3)nc3ncnn23)cc1 | . | -2.8
CC(=O)NC(CC(=O)O)c1ccc(F)cc1 (stereo unspecified) | 7 | -1.4
NS(=O)(=O)c1ccc(Br)s1 | . | 3.3
Cc1cc(C(=O)COC(=O)Cn2cnnn2)c(C)n1CC1COc2ccccc2O1 (stereo unspecified) | -8 | .
COCCCn1c(SCC(=O)N(Cc2ccco2)c2nccs2)nc2sc3c(c2c1=O)CCC3 | 16 | 2.8
COc1ccc(OCCNC(=O)N2CCOCC2)cc1 | -2 | 0.3
CC(C)(C)C(=O)CON1C(=O)c2ccccc2C1=O | 24 | 4.6
Cn1c2ccccc2n2c(C(=S)Nc3ccccc3)c(-c3ccccc3)nc12 | -7 | 0.1
Cc1cn(C(=O)c2ccccc2)c(=O)[nH]c1=O | 10 | 14
COc1ccc(C=NCc2ccc(OC)c(OC)c2)cc1OC | . | 1.1
C#CCSc1ccccc1C(=O)O | -4 | .
CCN1C(=O)/C(=C/N(C(C)=O)c2ccccc2)SC1=S | 14 | .
Cc1noc(C)c1COC(=O)C(C)N1C(=O)c2ccccc2C1=O (stereo unspecified) | 1 | .
CCOc1ccc(S(N)(=O)=O)cc1OCC | -13 | .
CCC(C(=O)O)n1nnc(-c2ccc(Cl)cc2)n1 (stereo unspecified) | 21 | .
Cc1nc(SCC(=O)c2ccc3[nH]c(=O)[nH]c3c2)c2ccccc2n1 | -4 | .
NC(=O)COC(=O)c1cccc2c1-c1ccccc1C2=O | 23 | .
O=C(CNc1ccc(C(=O)O)cc1)NCc1ccc2c(c1)OCO2 | -1 | .
Cc1cc(NC(=O)CNCc2ccccc2)n(-c2nc3ccccc3s2)n1 | -11 | .
CS(=O)(=O)Nc1cccc(C(F)(F)F)c1 | -23 | .
COc1ccc(NC(=O)N2CCN(C(=O)C(Cc3ccc(F)cc3)NC(C)=O)CC2)cc1 (stereo unspecified) | 1 | -1.4
Cc1ccc(NC(=O)NC(=O)CSc2nnc(Cc3csc(C)n3)o2)c(C)c1 | -10 | .
CC(C)(Oc1ccc(Cl)cc1)C(=O)Nc1nccs1 | -9 | -1.6
COc1ccc(-c2cn3c(C)c(C(=O)N4CCN(c5ccccc5)CC4)sc3n2)cc1 | 15 | 0.2
Cn1c(C(C#N)C(=O)c2cccc(N3C(=O)c4ccccc4C3=O)c2)nc2ccccc21 (stereo unspecified) | -2 | .
CCOC(=O)c1ccc(NC(=O)CSc2nc(NC(=O)c3ccccc3)c3c(C)c(C)oc3n2)cc1 | -5 | .
O=S(=O)(Cc1ccccc1)NNc1ccccc1 | -22 | .
COc1cc(CO)cc(Cl)c1OCC(N)=O | 7 | 0.3
COc1cccc(N2C(=O)CC(Sc3nnc(C)s3)C2=O)c1 (stereo unspecified) | 9 | .
O=C(C[n+]1ccccc1)c1c(F)cccc1F | . | 2.5
O=C(c1ccc2occc2c1)N1CC=C(c2ccccc2)CC1 | . | 0.1
O=C(c1ccc2c(c1)N(Cc1cccc(Cl)c1)C(=O)c1ccccc1S2=O)N1CCCCC1 (stereo unspecified) | 25 | .
O=C(NC1CCCCC1)c1ccc(N2CC3CC(C2)c2cccc(=O)n2C3)c(NS(=O)(=O)c2ccc(F)cc2)c1 (stereo unspecified) | -3 | .
COc1ccc(-c2nsc(SCC(=O)c3ccc(Cl)cc3)n2)cc1 | 4 | -1.1
Cc1ccc(S(=O)(=O)NC(=O)N2CCCCC2)cc1 | . | -2.1
O=C(NCCO)c1cccc(Cl)c1 | -2 | -3.0
COc1ccc(Cl)cc1C(=O)Nc1nnc(-c2ccc(F)cc2)s1 | -1 | .

Continued, overlapping the part above by 2 compounds.
SMILES | S aureus helic | MgrA-DNA mod
O=C(NCCO)c1cccc(Cl)c1 | -2 | -3.0
COc1ccc(Cl)cc1C(=O)Nc1nnc(-c2ccc(F)cc2)s1 | -1 | .
O=C(c1csc2c1CCCC2)N1CCc2ccccc21 | 13 | 0.6
CCC(CC)C(=O)N1c2ccccc2CCc2ccccc21 | -16 | -0.2
C#CCSc1nccc(-c2cc(-c3ccc(Cl)cc3)no2)n1 | -11 | .
O=S(=O)(N/N=C/C1=C(N2CCOCC2)C(=C\c2ccccc2)/CC1)c1ccccc1 | -7 | .
N=C(N)SCc1c(F)cccc1Cl | . | -0.3
NC(=O)C1CCN(C(=O)CSc2ncccn2)CC1 | 4 | 0.4
O=C(NC1CCCCCCC1)c1cccn2c(=O)c3cc(Br)ccc3nc12 | 7 | 3.0
Cc1ccc(C)c2c(=O)c(C(=O)O)c[nH]c12 | . | -1.3
COc1ccc(Cl)cc1NC(C)=O | . | 1.4
CC(C)c1ccc(Nc2nnns2)cc1 | . | -0.6
N=C1C(c2nc3ccccc3c(=O)[nH]2)=C(O)CN1Cc1ccccc1 | 7 | 4.8
CCOC(=O)c1[nH]c(C)c(C(=O)N2CCCCCC2)c1C | -23 | .
COCCNC(=O)c1ccccc1NC(=O)c1ccc(F)cc1 | 18 | 0.2
CCn1c(C(=O)OC)cc2oc(C)cc21 | 10 | .
Cc1ccc(N2CC(C(=O)N3CCCCC3)CC2=O)cc1 (stereo unspecified) | -5 | .
COc1ccc(N=Cc2ccc(Cl)cc2)cc1OC | -20 | -3.3
O=C(c1cnc2n(c1=O)CCS2)N1CCN(C(c2ccccc2)c2ccc(Cl)cc2)CC1 (stereo unspecified) | -10 | .
NC(=O)C1CCCN(S(=O)(=O)c2ccc(Cl)cc2)C1 (stereo unspecified) | -8 | -1.7
O=C(OC(c1ccco1)c1nccc2ccccc12)c1ccccc1 (stereo unspecified) | 7 | .
CN1CCC(NCc2ccccc2Cl)CC1 | 14 | -2.7
CC(C)(C)N(Cc1ccccc1)C(=O)CCCN1C(=O)/C(=C/c2cccs2)SC1=S | -12 | 0.6
CCc1nc2sc3c(c2c2nnc(C)n12)CCC3 | 18 | .
O=C(Cn1c(=O)n(Cc2nc(-c3ccccc3)no2)c(=O)c2cc3c(cc21)OCO3)Nc1ccccc1C(F)(F)F | -29 | .
O=C(CO/N=C\c1ccccc1)Nc1ccccc1C(=O)O | 11 | -1.1
CN(C)Cc1coc2ccccc2c1=O | . | 1.3
OCn1c2ccccc2c2cc(Cl)ccc21 | 0 | -0.1
CC(C)Oc1ccc(CNCCC(c2ccccc2)c2ccco2)cc1 (stereo unspecified) | 12 | 0.6
O=C1c2ccccc2C(=O)N1CC1COc2ccccc2O1 (stereo unspecified) | . | 0.4
CCOc1ccc(-n2nnnc2-c2nc3ccccc3s2)cc1 | -19 | .
Oc1ccccc1-c1nnc(-c2ccccc2)c(-c2ccccc2)n1 | -8 | .
O=C(CCN1C(=O)c2ccccc2C1=O)OCC(=O)c1ccc2c(c1)OCCO2 | -2 | .
Cc1cc(C)n(-c2ccc(C(F)(F)F)cc2)n1 | . | -1.6
O=C(O)c1cc2[nH]c3c(c2cc1Cl)CCCC3 | 6 | -2.5
CCOc1ccc(N2C(=O)CC(N3CCCCC3CC)C2=O)cc1 (stereo unspecified) | -2 | -0.9
O=C(CN1CCN(C(=O)C2CCCO2)CC1)Nc1cc(C(F)(F)F)ccc1Cl (stereo unspecified) | 7 | 0.9
Cc1cc(C(=O)COC(=O)c2nccnc2N)c(C)n1C | 3 | .
Cc1nc(SCCC(=O)O)c2oc3ccccc3c2n1 | 12 | -0.9
COc1cccn(Cc2nnc(SCC(=O)c3ccccc3)o2)c1=O | . | -2.1
O=C(COc1ccccc1F)Nc1cccnc1 | 4 | -0.9
Cc1cc(C)nc(/N=C(\N)Nc2ccccc2)n1 | -8 | -0.4
CC(C#N)Sc1ncnc2ccccc12 (stereo unspecified) | -14 | .
CCOc1cc(C(=O)OCC(=O)Nc2cccc(C)c2)ccc1OCC(=O)N1CCOCC1 | -14 | .
Cc1ccc(Cn2nnc3c(=O)[nH]c(C4CCCN(C(=O)c5ccco5)C4)nc32)cc1 (stereo unspecified) | -2 | -2.5
O=C(CSc1nnc(Nc2ccccc2)s1)N1CCCC1 | -6 | .
COCOC(=O)c1c(-c2ccccc2Cl)noc1C | -4 | .
N#CC(c1nc2ccccc2nc1N1CCOCC1)S(=O)(=O)c1ccccc1 (stereo unspecified) | -13 | .
CCCNC(=O)c1cnn2c(C)cc(C)nc12 | 13 | 4.0
CC1SC(c2cccnc2)N(c2ccc(F)cc2F)C1=O (stereo unspecified) | . | 0.0
O=C1c2cccc3cccc(c23)C(=O)N1Cc1ccco1 | . | 1.2
O=C1CCCN1c1ccc(S(=O)(=O)Nc2cccc(CCc3ccccn3)c2)cc1 | 3 | .
COC(=O)c1nn(-c2ccccc2)c(=O)c2c(N)sc(C)c12 | . | 6.0
Cc1ccc(S(=O)(=O)N2CCC(c3c(C)n(CC(=O)N4CCCC4)c4ccccc34)CC2)cc1C | 3 | -1.6
O=C(CC1SC2=NCCN2C1=O)Nc1ccccc1 (stereo unspecified) | 4 | -1.6
CSc1ccc2c(c1)c(=O)nc1n2CCCCC1 | 3 | -2.1
O=C(NCc1ccco1)c1ccccc1NC(=O)C1CCCCC1 | 13 | 8.8
Cc1ccc(C2CC(c3cccs3)=NN2C(=O)CSc2ncnc3ccccc23)cc1 (stereo unspecified) | -16 | 0.9
Cn1c(N)c(S(=O)(=O)N2CCc3ccccc32)c(=O)n(C)c1=O | 3 | .
CCC(=O)Nc1ccc(C(=O)CSc2nnc(CN3CCCC3)n2-c2ccccc2)cc1 | -7 | .
CC(C)CCN1C(=O)C=CC1=O | 1 | -2.6
CCOCCOC(=O)C1=C(C)NC2=C(C(=O)CC(c3ccc(Cl)cc3)C2)C1c1cccc(OC)c1OC (stereo unspecified) | . | -0.4
(further entries)
SMILES | S aureus helic | MgrA-DNA mod
CNCc1ccc(C)o1 | 3 | 0.4
O=C(CCSc1ccccc1)N1CCOCC1 | 18 | 1.7
O=C(c1ccccc1)c1cc2cc(Cl)cc(Cl)c2o1 | . | 0.2
CCOC(=O)CC(=O)C1CCN(C(=O)OC(C)(C)C)CC1 | 11 | .
CC(C)N1C(=O)/C(=C/c2ccc(N(C)C)cc2)SC1=S | -135 | .
COC(=O)c1ccc(Oc2ccc(C(F)(F)F)cn2)cc1 | . | -1.9
Cc1cccc(C(=O)N(Cc2ccccc2)C(C)C)c1C | . | 0.4
c1ccc(-c2cc3c(nn2)CCc2nonc2-3)cc1 | . | -1.9
CCOc1ccc(S(=O)(=O)N2CCCC(C(=O)N3CCN(c4ccccc4)CC3)C2)cc1 (stereo unspecified) | 17 | 0.5
C=CCN1C(=O)CSC1=Nc1ccc(S(=O)(=O)Nc2nccc(C)n2)cc1 | 5 | -1.8
C=CCn1c(SCc2cccc(OC)c2)nc2scc(-c3ccco3)c2c1=O | -5 | .
c1ccc(CNCCCN2CCOCC2)cc1 | -4 | -0.7
Cc1cc(NC(=O)NNc2ccccc2)no1 | 0 | .
CCOC(=O)C1CCN(Cc2cc(Cl)c3ccccc3c2O)CC1 | -14 | .
CC(C)(C)c1cc(-c2nc(-c3ccccc3)no2)n(Cc2ccccc2)n1 | -8 | .
C/C(CC(O)c1ccc2ccccc2n1)=N/O (stereo unspecified) | -1 | 0.5
CC1=NN(C2(C#N)CCCCC2)C(c2ccccc2)C1 (stereo unspecified) | 15 | 7.1
COc1ccccc1-c1nnc2ccc3ccccc3n12 | -7 | -3.2
Cc1ccccc1NC(=O)c1cccc(NC(=O)C(F)(F)F)c1 | -1 | .
CN1CCN(C2=Nc3ccccc3Oc3ccc(Cl)cc32)CC1 | . | -0.3&-0.5
CCCCn1c(CNC(=O)CC)nc2ccccc21 | -20 | .
CN(C)S(=O)(=O)c1ccc(C(=O)NCCN2C(=O)CSC2=O)cc1 | -21 | .

Molecules from the list above containing fluorine (16):
SMILES | S aureus helic | MgrA-DNA mod
O=C(Cc1c(F)cccc1Cl)N1CCC2(CC1)OCCO2 | 11 | 0.3
CC(=O)NC(CC(=O)O)c1ccc(F)cc1 (stereo unspecified) | 7 | -1.4
CS(=O)(=O)Nc1cccc(C(F)(F)F)c1 | -23 | .
COc1ccc(NC(=O)N2CCN(C(=O)C(Cc3ccc(F)cc3)NC(C)=O)CC2)cc1 (stereo unspecified) | 1 | -1.4
O=C(C[n+]1ccccc1)c1c(F)cccc1F | . | 2.5
O=C(NC1CCCCC1)c1ccc(N2CC3CC(C2)c2cccc(=O)n2C3)c(NS(=O)(=O)c2ccc(F)cc2)c1 (stereo unspecified) | -3 | .
COc1ccc(Cl)cc1C(=O)Nc1nnc(-c2ccc(F)cc2)s1 | -1 | .
N=C(N)SCc1c(F)cccc1Cl | . | -0.3
COCCNC(=O)c1ccccc1NC(=O)c1ccc(F)cc1 | 18 | 0.2
O=C(Cn1c(=O)n(Cc2nc(-c3ccccc3)no2)c(=O)c2cc3c(cc21)OCO3)Nc1ccccc1C(F)(F)F | -29 | .
Cc1cc(C)n(-c2ccc(C(F)(F)F)cc2)n1 | . | -1.6
O=C(CN1CCN(C(=O)C2CCCO2)CC1)Nc1cc(C(F)(F)F)ccc1Cl (stereo unspecified) | 7 | 0.9
O=C(COc1ccccc1F)Nc1cccnc1 | 4 | -0.9
CC1SC(c2cccnc2)N(c2ccc(F)cc2F)C1=O (stereo unspecified) | . | 0.0
COC(=O)c1ccc(Oc2ccc(C(F)(F)F)cn2)cc1 | . | -1.9
Cc1ccccc1NC(=O)c1cccc(NC(=O)C(F)(F)F)c1 | -1 | .

Bioassay records as filed in PubChem BioAssay.
